rRNA inh HTS = inhibits bacterial ribosomal RNA function over humanized ribosomes. E. coli WT GFP vs humanized-ribosome RFP mutants, fluorescence, 24 h; active compounds read low; DMSO median 0, no signal -100. GFP signal change (wild-type ribosome), % (concentration not given with the values). 1.6% of 350,000 active;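 active means significant combined selectivity score with lowered wild-type GFP, culture density cut under 30%, mutant RFP and density less affected; inactive means any of these conditions unmet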; further: one replicate is shown; some compounds called inactive have numbers as strong as hits
T cruzi inh = blocks replication of Trypanosoma cruzi | T. cruzi beta-gal in NIH3T3, luminescence, 90 h | inhibition, % (no concentration beside the values) | 1.4% of 300,000 active | AID 1885;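 active means mean inhibition across valid replicates above about 55%, limit read from the data; inconclusive means mean below that limit but half or more replicates reach it; inactive means mean below it, under half of replicates reach it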;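 further: signal also drops with host cell toxicity which is not excluded here; 0% = plate median of DMSO wells and 100% = zero luminescence signal; higher percent means less beta-gal luminescence so fewer parasites; stock transfer was 50 nL into about 50 µL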
AF4-AF9 inh = MLL-AF4/AF9 protein interaction inhibition; AlphaScreen, biotin-AF4 peptide binding to FLAG-AF9; 0.47% of 350,000 active; inhibition, % at 10 µM;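 active means every replicate reaching a set inhibition limit, whatever the replicate mean, cut at about 25% in these data; inconclusive means mean inhibition reaches that limit but some replicates miss it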;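 further: 0% = plate neutral control median and 100% = total signal loss; the record names both 10 and 1 µM as test concentration; the first replicate is given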
Target sequence (P42568 whole entry, looked up): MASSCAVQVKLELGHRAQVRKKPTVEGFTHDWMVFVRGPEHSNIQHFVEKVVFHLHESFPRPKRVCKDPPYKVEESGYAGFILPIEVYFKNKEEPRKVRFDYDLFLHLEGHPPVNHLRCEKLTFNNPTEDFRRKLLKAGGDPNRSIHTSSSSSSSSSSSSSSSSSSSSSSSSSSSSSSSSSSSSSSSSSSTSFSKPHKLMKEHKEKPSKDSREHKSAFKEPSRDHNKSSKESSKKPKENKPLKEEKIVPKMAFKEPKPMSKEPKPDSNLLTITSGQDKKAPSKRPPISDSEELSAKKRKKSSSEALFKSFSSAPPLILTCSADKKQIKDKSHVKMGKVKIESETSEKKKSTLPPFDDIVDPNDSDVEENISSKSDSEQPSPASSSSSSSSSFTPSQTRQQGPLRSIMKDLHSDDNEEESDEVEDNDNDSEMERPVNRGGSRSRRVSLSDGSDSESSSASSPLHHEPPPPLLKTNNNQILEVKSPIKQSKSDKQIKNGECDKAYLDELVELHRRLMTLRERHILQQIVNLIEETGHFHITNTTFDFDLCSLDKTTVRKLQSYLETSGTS
RanGTP-Impb inh = disruptors of Ran-importin-beta complex formation – biochemical, FRET, CFP-Ran, YFP-importin-beta, homogeneous, primary screen; cell-free CFP-Ran/YFP-importin-beta FRET ratio; inhibition, % (concentration not given with the values); 1.1% of 300,000 active; AID 2216;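 active means most replicates above 15%; inconclusive means exactly half above 15%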;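 further: 0% = DMSO wells and 100% = Ran loaded with GDP instead of GTP; wells of about 40 µL received 100 nL stock; the first replicate is given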
Calb FLC = affects C. albicans growth with fluconazole; growth inhibition, % (test concentration not listed); C. albicans CaCi-2 (fluconazole-resistant clinical isolate) + fluconazole, Alamar Blue growth, 48 h; 0.57% of 300,000 active;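 active means most replicates above 75%; inconclusive means exactly half above 75%; inactive means most below 75%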;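 further: all wells also contain fluconazole at 8 µg/ml as a sub-toxic cotreatment; 0% = median of DMSO wells and 100% = median of geldanamycin control wells; wells of about 8 µL received 7.5 nL stock; the first replicate is given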
ALR inh = blocks human ALR sulfhydryl oxidase activity | P55789 | purified ALR, DTT oxidation, H2O2 HRP-luminol luminescence | inhibition, % (test concentration not listed) | 3.8% of 290,000 active | AID 485317;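 active means mean and each replicate at 75% or more; inconclusive means only one of the two met; inactive means neither met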;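 further: stock transfer was 7.5 nL into about 7.5 µL; 0% = neutral wells and 100% = wells with inactivated enzyme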
Target sequence (P55789 whole entry, looked up): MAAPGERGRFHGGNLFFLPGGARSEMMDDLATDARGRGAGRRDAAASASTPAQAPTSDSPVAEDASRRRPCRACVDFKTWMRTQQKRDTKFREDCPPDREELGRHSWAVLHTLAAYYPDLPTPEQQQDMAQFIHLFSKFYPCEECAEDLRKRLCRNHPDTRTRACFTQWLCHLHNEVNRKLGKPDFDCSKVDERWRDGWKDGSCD
Beta apoptosis = beta cell apoptosis inhibition. INS-1E cytokine-induced death, ATP luminescence, 48 h; percent of positive-control rescue, neutral wells zero. protection from apoptosis, % (no concentration beside the values). 0.8% of 300,000 active. AID 435005;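 active means all replicates at 75% or more, or half of them and the mean; inconclusive means half reach 75% but not the mean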;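 further: 0% = cytokine-treated negative control wells and 100% = positive control rescue; higher means more ATP so stronger rescue from cytokine killing; wells of about 40 µL received 100 nL stock; the first replicate is given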
FGF22 binding = FGF22 (human) thermal shift binding; 1.5% of 340,000 active; calls only at 9.99 µM; Q9HCT0; recombinant FGF22 thermal shift, SYPRO orange fluorescence; percent of sucrose octasulfate shift, DMSO zero; AID 651658;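 active means melting point raised past a set limit in the mean and every replicate; inconclusive means no clear call; three in four hits are not shown here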
Target sequence (Q9HCT0 whole entry, looked up): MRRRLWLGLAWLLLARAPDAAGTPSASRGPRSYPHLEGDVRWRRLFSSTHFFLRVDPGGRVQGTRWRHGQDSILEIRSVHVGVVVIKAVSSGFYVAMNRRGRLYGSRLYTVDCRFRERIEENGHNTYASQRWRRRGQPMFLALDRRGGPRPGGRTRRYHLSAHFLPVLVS
rRNA inh HTS OD600 = recorded beside rRNA inh HTS, whose call it bears; OD600 change, %; measured here: OD600 growth;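 optical density of the mix in the first replicate; 0 = DMSO median and -100 = no signal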
rRNA inh HTS RFP = also measured in rRNA inh HTS; calls as there; RFP signal change, %; measured here: RFP humanized mutant strains;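 first replicate; 0 = DMSO median and -100 = no signal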
An asterisk follows results filed as active; i = inactive; u = inconclusive; x = not tested or not shown. A portion of the library (hit frequency here may not be typical).

(1) Cc1ccc(N2C(=O)NC(=O)/C(=C/c3ccc(OC(=O)c4cccs4)cc3)C2=O)cc1
(2) CN1CCN(Cc2nc3ccccc3c(=O)[nH]2)CC1
(3) CCC(=NCCCN(CC)CC)c1c(O)n(C2CCCCC2)c(=O)[nH]c1=O
(4) CCCCCCN=C(C)c1c(O)n(CCCC)c(=O)[nH]c1=O
(5) Cc1cc(C)n(CCOC(=O)C2C(C=C(Cl)Cl)C2(C)C)n1 (configuration not stated)
(6) CCC(=Nc1ccc(OC)cc1OC)c1c(O)[nH]c(=O)[nH]c1=O
(7) Cc1nc2ccccc2c(=O)n1-c1cccc(C(F)(F)F)c1
(8) Cc1cccc(C)c1NC(=O)c1cccn(Cc2ccc3c(c2)OC(F)(F)O3)c1=O
Compound | 1 | 2 | 3 | 4 | 5 | 6 | 7 | 8
T cruzi inh | -1 | 28 | 66* | 12 | 6 | 3 | -15 | 22
RanGTP-Impb inh | 4.0 | -1.6 | 3.5 | 2.4 | -2.2 | 1.6 | 2.3 | 5.3
rRNA inh HTS RFP | x | -5.6 | x | x | x | x | -1.8 | x
rRNA inh HTS OD600 | x | 15 | x | x | x | x | -1 | x
Beta apoptosis | 0 | -1 | -1 | 3 | 0 | -7 | 2 | x
ALR inh | 13 | -4 | -1 | 5 | 4 | -38 | -7 | -1
Calb FLC | u | 7 | -19 | x | 0 | 1 | 3 | 14
rRNA inh HTS | x | 11 | x | x | x | x | 1 | x
AF4-AF9 inh | x | -0.4 | x | x | x | x | -1.2 | x
FGF22 binding | x | i | x | x | x | x | i | x

Shown as tab-separated lines: 2 of the compounds above.
no.	mol	T cruzi inh	RanGTP-Impb inh	rRNA inh HTS RFP	rRNA inh HTS OD600	Beta apoptosis	ALR inh	Calb FLC	rRNA inh HTS	AF4-AF9 inh	FGF22 binding
1	Cc1ccc(N2C(=O)NC(=O)/C(=C/c3ccc(OC(=O)c4cccs4)cc3)C2=O)cc1	-1	4.0	x	x	0	13	u	x	x	x
2	CN1CCN(Cc2nc3ccccc3c(=O)[nH]2)CC1	28	-1.6	-5.6	15	-1	-4	7	11	-0.4	i

(continued)
(9) O=c1cccc2n1CC1CC2CN(Cc2c(F)cccc2Cl)C1 (configuration not stated)
(10) CC(=O)Nc1ccc(C(c2c(O)c3ccccc3oc2=O)c2c(C)n(C)n(-c3ccccc3)c2=O)cc1 (configuration not stated)
(11) Cc1ccc(CN2CCN(CC(=O)N3CCC4(CC3)OCCO4)C2=O)cc1
(12) COc1ccc(CNCCc2ccc(Cl)cc2Cl)cc1
(13) CCOC(=O)c1c(C)[nH]c(C(=O)C(C)N2CCCC2)c1C (configuration not stated)
(14) Cc1ccc(S(=O)(=O)N(C)c2ccc(C(=O)NCC3(N(C)C)CCCCC3)cc2)cc1
(15) CCCCP(=O)(O)CCC(=O)O
(16) O=C1NC(=O)C(=Cc2ccc(-c3cc(Cl)ccc3[N+](=O)[O-])o2)C(=O)N1
Compound | 9 | 10 | 11 | 12 | 13 | 14 | 15 | 16
T cruzi inh | 13 | -8 | -1 | 34 | -5 | 13 | 5 | 3
RanGTP-Impb inh | -1.2 | 4.2 | 2.9 | -3.3 | 2.5 | 9.3 | 0.3 | -0.8
rRNA inh HTS RFP | -3.3 | -4.2 | x | -2.3 | 0.8 | -2.6 | x | -2.4
rRNA inh HTS OD600 | -5 | -3 | x | -2 | 0 | 1 | x | -6
Beta apoptosis | -1 | -2 | -1 | -8 | -2 | 2 | 0 | x
ALR inh | -2 | -9 | 19 | -23 | -1 | 1 | 2 | x
Calb FLC | -11 | -3 | -19 | -3 | 2 | 2 | -4 | 27
rRNA inh HTS | -3 | -11 | x | 2 | 10 | 3 | x | 0
AF4-AF9 inh | -4.9 | -17 | x | 2.5 | 0.6 | 3.6 | x | -1.6
FGF22 binding | i | i | x | i | i | i | x | i

(17) CC(C)CCn1c(=O)c(C(=O)NCc2ccc3c(c2)OCO3)c(O)c2ccccc21
(18) CC12CC(c3ccccc3O1)C(C(=O)OCc1ccccc1)C(=O)N2 (configuration not stated)
(19) O=C(Nc1cccc(Cl)c1)c1c(O)c2c(n(Cc3ccco3)c1=O)CCCC2
(20) CCOC(=O)c1cc(CC)sc1/N=C/C1C(=O)NC(=S)NC1=O
(21) CC1=Nc2ccccc2/C1=C/c1c(O)[nH]c(=O)[nH]c1=O
(22) Cc1cccc(N2C(=O)NC(=O)/C(=C\c3cccn3-c3ccc(Cl)cc3)C2=O)c1
(23) CC1CCCCN1C(=O)c1ccc(N2CC3CC(C2)c2cccc(=O)n2C3)c([N+](=O)[O-])c1 (configuration not stated)
(24) FC(F)(F)c1ccccc1CN1CCN(Cc2ccccc2)CC1
Compound | 17 | 18 | 19 | 20 | 21 | 22 | 23 | 24
T cruzi inh | u | 0 | -3 | -5 | -1 | -8 | 3 | -10
RanGTP-Impb inh | 2.1 | 3.9 | 8.3 | -0.9 | -3.2 | 0.3 | 1.7 | 3.3
rRNA inh HTS RFP | -0.4 | x | x | 9.5 | 6.3 | x | x | -3.5
rRNA inh HTS OD600 | 13 | x | x | 16 | 6 | x | x | -7
Beta apoptosis | 4 | -6 | 0 | -3 | x | 12 | 3 | 0
ALR inh | -3 | -15 | -4 | 97* | 0 | 13 | -5 | -1
Calb FLC | 30 | 3 | 6 | 24 | -3 | -19 | -5 | -14
rRNA inh HTS | 13 | x | x | 23 | 12 | x | x | -10
AF4-AF9 inh | -1.0 | x | x | -3.3 | -2.0 | x | x | -25
FGF22 binding | i | x | x | i | i | x | x | i

Shown with values under each structure: entries from further up
Values run as follows: T cruzi inh | RanGTP-Impb inh | rRNA inh HTS RFP | rRNA inh HTS OD600 | Beta apoptosis | ALR inh | Calb FLC | rRNA inh HTS | AF4-AF9 inh | FGF22 binding
15	CCCCP(=O)(O)CCC(=O)O
→ 5 | 0.3 | x | x | 0 | 2 | -4 | x | x | x
16	O=C1NC(=O)C(=Cc2ccc(-c3cc(Cl)ccc3[N+](=O)[O-])o2)C(=O)N1
→ 3 | -0.8 | -2.4 | -6 | x | x | 27 | 0 | -1.6 | i
17	CC(C)CCn1c(=O)c(C(=O)NCc2ccc3c(c2)OCO3)c(O)c2ccccc21
→ u | 2.1 | -0.4 | 13 | 4 | -3 | 30 | 13 | -1.0 | i
18	CC12CC(c3ccccc3O1)C(C(=O)OCc1ccccc1)C(=O)N2 (configuration not stated)
→ 0 | 3.9 | x | x | -6 | -15 | 3 | x | x | x
19	O=C(Nc1cccc(Cl)c1)c1c(O)c2c(n(Cc3ccco3)c1=O)CCCC2
→ -3 | 8.3 | x | x | 0 | -4 | 6 | x | x | x
20	CCOC(=O)c1cc(CC)sc1/N=C/C1C(=O)NC(=S)NC1=O
→ -5 | -0.9 | 9.5 | 16 | -3 | 97* | 24 | 23 | -3.3 | i
21	CC1=Nc2ccccc2/C1=C/c1c(O)[nH]c(=O)[nH]c1=O
→ -1 | -3.2 | 6.3 | 6 | x | 0 | -3 | 12 | -2.0 | i
22	Cc1cccc(N2C(=O)NC(=O)/C(=C\c3cccn3-c3ccc(Cl)cc3)C2=O)c1
→ -8 | 0.3 | x | x | 12 | 13 | -19 | x | x | x
23	CC1CCCCN1C(=O)c1ccc(N2CC3CC(C2)c2cccc(=O)n2C3)c([N+](=O)[O-])c1 (configuration not stated)
→ 3 | 1.7 | x | x | 3 | -5 | -5 | x | x | x
24	FC(F)(F)c1ccccc1CN1CCN(Cc2ccccc2)CC1
→ -10 | 3.3 | -3.5 | -7 | 0 | -1 | -14 | -10 | -25 | i

(further entries)
(25) Cc1cc([N+](=O)[O-])c(Cl)cc1NC(=O)C(C)C
(26) O=C(c1ccc(Cl)cc1)C1CCCN(Cc2cccc3ncccc23)C1 (configuration not stated)
(27) CCN1C[C@@]2(COC)C3[C@@H](OC)[C@H]4[C@@H]1[C@@]3(C1C[C@H]3[C@H](OC(=O)c5ccccc5)C1[C@]4(OC(C)=O)C[C@H]3OC)[C@@H](OC)C[C@H]2O (some centres not stated)
(28) O=C(Nc1ccc(Cl)cc1)O/N=C(\c1ccccc1)c1ccccn1
(29) CC(C)NC(C)C(=O)C12CC3CC(CC(C3)C1)C2 (configuration not stated)
(30) COC(=O)C1=C(c2ccc(-c3ccccc3)c(F)c2)C[C@@H]2CC[C@H]1N2C(=O)NCCCOC(C)C
(31) Cc1cccc(N2C(=O)NC(=O)/C(=C\C=C\c3ccco3)C2=O)c1
Compound | 25 | 26 | 27 | 28 | 29 | 30 | 31
T cruzi inh | -2 | 38 | -3 | -10 | 2 | x | -32
RanGTP-Impb inh | -1.0 | -0.2 | 4.6 | -0.6 | -3.0 | x | -2.4
rRNA inh HTS RFP | x | -3.0 | x | x | -3.1 | 20 | 12
rRNA inh HTS OD600 | x | -29 | x | x | 4 | -43 | 6
Beta apoptosis | 3 | 2 | 6 | 0 | -2 | -2 | 30
ALR inh | -14 | -4 | -35 | -7 | -6 | -4 | 64
Calb FLC | -4 | 3 | -7 | 10 | -2 | x | 3
rRNA inh HTS | x | -31 | x | x | 4 | -19 | 11
AF4-AF9 inh | x | 0.1 | x | x | x | 3.2 | -14
FGF22 binding | x | i | x | x | x | i | i

Source: PubChem
